Screening data from PubChem.
LANA-H2B inh: blocks KSHV LANA binding to histone H2A/H2B. inhibition, % (test concentration not listed). Q9QR71. cell-free LANA-H2A/H2B peptide, fluorescence polarization. hit rate 0.6% among 320,000; in the data active = inhibition mostly above about 10%, no sharp cut-off; inactive = mostly below about 6.7%;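 note: stock transfer was 7.5 nL into about 10 µL; 0% = median of vehicle wells and 100% = median of positive control wells; one replicate is shown; the record names a cut of 25% in any replicate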
HNF4A DNA FP: change in binding of human HNF4 alpha to DNA; hit rate 0.3% among 360,000; HNF4a-FITC DNA binding, fluorescence polarization, 1 h; activity change, % at 10 µM; in the data active = activity change above about 30%, passing the limit was not always enough;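 note: controls were the assay level and a saturating level of protein; the project sought stronger binding though the title names inhibitors; some compounds called inactive have numbers as strong as hits; positive values seem to mean higher polarization but the record does not say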
Target sequence (P41235 whole entry, looked up): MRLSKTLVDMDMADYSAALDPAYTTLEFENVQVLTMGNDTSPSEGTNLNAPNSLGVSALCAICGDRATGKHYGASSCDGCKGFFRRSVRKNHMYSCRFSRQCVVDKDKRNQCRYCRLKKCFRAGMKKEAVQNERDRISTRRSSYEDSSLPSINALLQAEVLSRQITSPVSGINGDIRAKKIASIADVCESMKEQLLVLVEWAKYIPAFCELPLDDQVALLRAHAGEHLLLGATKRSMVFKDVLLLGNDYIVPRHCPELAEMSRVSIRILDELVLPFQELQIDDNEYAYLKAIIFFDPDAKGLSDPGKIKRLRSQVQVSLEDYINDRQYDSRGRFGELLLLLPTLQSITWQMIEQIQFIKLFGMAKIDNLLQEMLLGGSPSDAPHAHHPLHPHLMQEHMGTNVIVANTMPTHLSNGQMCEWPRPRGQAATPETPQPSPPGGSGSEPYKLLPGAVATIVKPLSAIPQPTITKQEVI
Beta2AR agonist: activates human beta-2 adrenergic receptor causing internalization; Am2.2-beta2AR cells, FAP receptor internalization, flow cytometry; reference of the scale not given here; response, % (no concentration beside the values); hit rate 0.43% among 340,000; AID 504454;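 active = response above a set limit, near 3 SD of response in nonfluorescent compounds, cut at about 42% in these data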;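 note: stock transfer was 100 nL into about 11 µL; a reference agonist was the positive control; negative values mostly stem from fluorescent compounds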
Vif A3G: inhibitors of Vif binding to APOBEC3G peptide, primary screen, biochemical, TR-FRET, GST-Vif 1-94, biotin-A3G peptide, dose response retest (AID 1117319); TR-FRET GST-Vif / biotin-A3G peptide binding; higher % means a stronger effect; test concentration not given here; strong numbers were not always called active; one-dose inhibition, %; IC50 in µM for titrated hits; hit rate 0.57% among 260,000;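 active = above the screen mean plus three standard deviations and confirmed in dose response; inconclusive = results disagree or hit not tested in dose response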;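 note: Vif residues 1-94 fused to GST binding biotinylated APOBEC3G peptide 110-148; 0% = full assay without inhibitor and 100% = GST in place of GST-Vif; retest series ran down from 100 µM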
E coli growth: E. coli growth inhibition; OD600 absorbance (concentration not given with the values); AID 1053175; Escherichia coli growth, OD600, 23 h; hits give low values; hit rate 0.21% among 330,000;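 active = OD600 absorbance below the run mean of sample wells minus 3.6 SD, in any replicate, cut at about 0.56 in these data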;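 note: stock transfer was 300 nL into about 60 µL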
Bfl-1 A1 inh: inhibitors of the anti-apoptotic protein A1, read as caspase activation; MEF A1-2A-BIM cells, Caspase-Glo 3/7 luminescence, 3 h; percent of clofoctol response, vehicle zero; caspase activation, % (no concentration beside the values); hit rate 0.066% among 330,000; AID 2462;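 active = over half of replicate activation scores above 10%, or exactly half above 10 with the replicate mean above 10; inconclusive = replicate mean below 10 yet half the replicates above 10; inactive = over half of replicates below 10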;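 note: wells of about 30 µL received 50 nL stock; many hits fall short of the cut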
UCH37 DUB inh: inhibitors of human deubiquitinating enzyme UCH37; Q9Y5K5; inhibition, % (no concentration beside the values); AID 588478; hit rate 0.33% among 330,000; purified proteasome/UCH37, Ub-AMC cleavage fluorescence;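 active = mean of two replicates above 20%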;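 note: 0% = compound-free wells with enzyme and 100% = wells lacking proteasome; stock transfer was 100 nL into about 20 µL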
Target sequence (Q9Y5K5 whole entry, looked up): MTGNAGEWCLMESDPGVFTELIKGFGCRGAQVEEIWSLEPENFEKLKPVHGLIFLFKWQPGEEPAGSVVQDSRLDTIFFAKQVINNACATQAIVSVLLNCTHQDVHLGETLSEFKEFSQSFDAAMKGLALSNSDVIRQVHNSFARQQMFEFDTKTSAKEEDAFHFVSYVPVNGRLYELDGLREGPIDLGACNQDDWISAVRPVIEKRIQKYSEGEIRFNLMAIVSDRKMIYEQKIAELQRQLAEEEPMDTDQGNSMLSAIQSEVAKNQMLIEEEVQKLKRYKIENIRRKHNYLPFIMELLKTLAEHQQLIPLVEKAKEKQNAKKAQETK
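Schedule: 30 min plus 25 min, room temperature / Material: human UCH37 within purified proteasomes / Technique: AMC fluorescence intensity at 355/460 nm / Buffer or medium: pH 7.4 Tris-HCl (50 mM) with ovalbumin, ATP-MgCl2, DTT / Controls: wells without proteasome as full block, compound-free enzyme plus substrate as uninhibited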
Starred values were filed as active, the others as inactive; ? = inconclusive; . = not tested or not shown; & = joins results of further samples.

SMILES | LANA-H2B inh | HNF4A DNA FP | Beta2AR agonist | Vif A3G | E coli growth | Bfl-1 A1 inh | UCH37 DUB inh
COc1ccc(-c2coc3cc(O)ccc3c2=O)cc1O | 0.1 | 8.2 | -5 | 28% | 0.63 | 1.2 | -26
COc1ccc(CCNC(=O)C2CCCN2C(=O)Nc2ccc(F)cc2)cc1OC (stereo unspecified) | 0.7 | 6.0 | -10 | . | 0.65 | 0.2 | 1.6
Cc1ccc(OCC(=O)NNC(=O)c2cccnc2)cc1 | -0.9 | 2.3 | -3 | 6% | 0.74 | 0.1 | 1.1
COc1ccc(C2CC(c3ccc(Br)cc3)=NN2C(=O)CSC2=NCCS2)cc1 (stereo unspecified) | -3.1 | -1.4 | -1 | -53% | 0.79 | -0.5 | 0.7
C=CCOC(=O)C1=C(C)NC(=S)NC1/C=C/c1ccccc1 (stereo unspecified) | -1.0 | 0.1 | -25 | 9% | 0.73 | -0.4 | 2.2
CC1CN(S(=O)(=O)c2cccc(C(=O)NNC(=O)C(C)Oc3ccccc3F)c2)CC(C)O1 (stereo unspecified) | -2.4 | -1.9 | -5 | -3% | 0.63 | 1.0 | 3.9
O=C(N=C1SC2CS(=O)(=O)CC2N1c1ccccc1)c1cccc([N+](=O)[O-])c1 (stereo unspecified) | -1.0 | -2.5 | -4 | -7% | 0.69 | -0.2 | 1.0
Cc1ccc(C2=NN(C(=O)CCC(=O)O)C(c3cccc([N+](=O)[O-])c3)C2)cc1 (stereo unspecified) | 1.9 | 2.2 | 6 | . | . | 0.5 | .
O=C(CSc1nc(C2CC2)nc2ccccc12)Nc1ccccc1Cl | -4.4 | -2.7 | -5 | -10% | 0.69 | -0.1 | 3.8
Cc1cc(=O)[nH]c2cc(Cl)ccc12 | -6.0 | -1.5 | -7 | -4% | 0.67 | -0.2 | 0.7
O=C(COC(=O)C1CCN(S(=O)(=O)c2ccc3c(c2)OCCO3)CC1)NC1CCCCC1 | 2.6 | -5.9 | 3 | 2% | 0.68 | 0.1 | 2.9
CN(C)c1ccc(-c2noc(C3CCN(C(=O)Nc4ccc(Cl)cc4)CC3)n2)cc1 | 8.3 | -0.5 | 12 | -6% | 0.72 | 0.3 | -7.6
CC(C)CC(NS(=O)(=O)c1ccc2c(c1)oc(=O)n2C)C(=O)N1CC=C(c2ccccc2)CC1 (stereo unspecified) | -5.2 | 3.2 | -7 | 9% | 0.73 | -0.1 | 3.8
COc1ccc(NC2CCCN(C(=O)c3csc(C(C)C)n3)C2)cc1OC (stereo unspecified) | -0.1 | -4.1 | -2 | . | 0.72 | 1.3 | 0.5
CCOc1ccc(NC(=O)CN(C)C(=O)c2cc(-c3cccs3)nn2-c2ccccc2)cc1OCC | 0.5 | -1.1 | 12 | -6% | 0.69 | 0.2 | 0.6
CN(Cc1cccnc1)Cc1c(C(=O)N2CCc3ccccc3C2)nc2ccc(Cl)cn12 | 1.8 | -2.6 | -27 | -12% | 0.71 | 0.5 | -1.3
COc1cccc(CN(CC2CCCO2)C(=O)c2cc3ccccc3oc2=O)c1 (stereo unspecified) | 2.4 | 0.7 | 10 | 3% | 0.62 | 0.5 | -4.5
O=C(/C=C/c1ccc([N+](=O)[O-])cc1)NNC(=O)C1CC1 | 5.0 | -1.4 | -5 | . | 0.7 | 0.3 | 5.6
N#CC(=C(O)COC(=O)c1ccc2c(c1)OCCO2)c1nc2ccccc2[nH]1 | . | 16 | 10 | 13% | 0.66&0.74 | . | -1.0&0.4
CCOc1ccc(S(=O)(=O)N(C)CC(=O)NC2CC2)cc1 | -1.1 | -4.6 | -6 | . | 0.76 | 0.7 | 3.8
Cc1[nH]n(-c2ccccc2)c(=O)c1C=Nc1cccc(F)c1 | 4.1 | 7.2 | -4 | . | 0.69 | 0.7 | 5.5
S=C(NCc1ccco1)NCc1ccccc1Cl | -0.3 | 9.6 | 19 | . | 0.68 | 0.5 | -0.7
O=C(CCc1ccccc1)Nc1ncc([N+](=O)[O-])s1 | 0.7 | -3.9 | 15 | . | 0.65 | -5.5 | 7.6
COc1cc2c(cc1OC)CN(C(=O)CSc1n[nH]c(N)n1)CC2 | 2.9 | 5.5 | -7 | -2% | 0.7 | -0.6 | 0.2
CCOC(=O)N1CCN(c2c(NCCN3CCCCC3CC)c(=O)c2=O)CC1 (stereo unspecified) | -1.6 | -2.8 | -1 | 3% | 0.74 | 0.3 | 2.1
CCOC(=O)C1CCCN(C(=O)c2cn(-c3ccccc3)nc2-c2cccnc2)C1 (stereo unspecified) | 1.5 | 2.5 | 13 | -9% | 0.65 | 0.0 | 2.7
C=C(C)Cn1c(NCCOC)nc2c1c(=O)[nH]c(=O)n2C | -7.3 | -0.8 | -2 | 12% | 0.68 | 0.3 | -0.7
CC1CCN(Cc2nnnn2CCCC(=O)NC(c2ccccn2)C(F)(F)F)CC1 (stereo unspecified) | -0.8 | -1.3 | -6 | 3% | 0.71 | 0.6 | 1.5
CCOC(=O)C1CCCN(S(=O)(=O)c2cc3[nH]c(=O)c(=O)[nH]c3cc2C)C1 (stereo unspecified) | 1.1 | 3.2 | -7 | -2% | 0.74 | 0.5 | -47
C/C(=N\Nc1ccc(C(=O)O)cc1)c1ccc(S(=O)(=O)NCc2ccco2)cc1 | -3.4 | 5.1 | 16 | 1% | . | -0.5 | .

Given with two lines to a compound: entries from further up.
The line under a structure holds: LANA-H2B inh	HNF4A DNA FP	Beta2AR agonist	Vif A3G	E coli growth	Bfl-1 A1 inh	UCH37 DUB inh
- COc1cccc(CN(CC2CCCO2)C(=O)c2cc3ccccc3oc2=O)c1 (stereo unspecified)
    2.4	0.7	10	3%	0.62	0.5	-4.5
- O=C(/C=C/c1ccc([N+](=O)[O-])cc1)NNC(=O)C1CC1
    5.0	-1.4	-5	.	0.7	0.3	5.6

More compounds follow.
SMILES | LANA-H2B inh | HNF4A DNA FP | Beta2AR agonist | Vif A3G | E coli growth | Bfl-1 A1 inh | UCH37 DUB inh
CCN(CC)CCNC(=O)C1CCN(S(=O)(=O)N2CCCCC2)CC1 | -8.9 | 4.7 | 7 | 13% | 0.67 | 1.3 | 1.1
CN(C)C(=O)c1ccc(NC(=O)COC(=O)c2cc(S(=O)(=O)N(C)C)ccc2N2CCCC2)cc1 | -0.2 | 2.1 | 0 | -6% | 0.66 | 0.6 | 2.6
O=C(Cc1cccs1)N(Cc1ccco1)C1(C(=O)NC2CCCC2)CCCCC1 | -3.6 | -0.4 | 5 | 13%&-5% | 0.76 | -0.2 | 1.4
CC(C)C1Nc2ccc(C(=O)N3CCN(c4ccccn4)CC3)cc2NC1=O (stereo unspecified) | 3.1 | -0.7 | 1 | . | 0.57 | -0.5 | 1.5
O=C(CSc1ccc(Cl)cc1)c1ccco1 | 2.0 | -31 | 3 | 11µM* | 0.63 | -0.5 | 4.7
O=C1OC(/C(=C\Nc2ccc(F)cc2F)[N+](=O)[O-])c2ccccc21 (stereo unspecified) | -10 | 2.7 | 0 | -6% | 0.72 | 1.1 | 10.0
Clc1ccccc1OCCCCN1CCCCC1 | 4.5 | 3.0 | 7 | . | 0.63 | -1.1 | 4.0
COc1ccc(CCN=C(N)NS(=O)(=O)c2ccc(F)cc2)cc1OC | 26* | -3.2 | 1 | 12% | 0.7 | -0.3 | 3.3
CCN(c1ccccc1)S(=O)(=O)c1ccc(NC(=O)c2nc(S(C)(=O)=O)ncc2Cl)cc1 | -2.5 | 5.7 | 104* | . | . | -2.1 | .
Cc1cccc(Nc2nc(-c3c(C)nc4ccccn34)cs2)c1 | -3.3 | -2.4 | -7 | 2% | 0.7 | -0.9 | -14
COC(=O)C1CCN(c2cc(=O)n(Cc3ccc(F)cc3)c(=O)[nH]2)CC1 | -9.5 | -1.2 | 17 | 6% | 0.64 | 1.0 | 4.0
CCN(CCCNC(=O)C1CCN(S(=O)(=O)c2cccc3nonc23)CC1)Cc1ccccc1 | -1.1 | 3.5 | -1 | 32%&-4% | 0.72 | 0.1 | 3.0
O=C(CSc1nnc(COc2ccc(Cl)cc2)o1)N1CCCCC1 | 3.5 | -0.5 | -7 | . | 0.69 | 0.2 | 0.8
COc1cc(C2C(C#N)=C(N)N(c3ccc(F)cc3)C3=C2S(=O)(=O)CC3)ccc1O (stereo unspecified) | 3.7 | 15 | 0 | ? | . | -0.6 | .
N#CC1=C(N)SC(N)=C(C#N)C1c1ccnc2ccccc12 | 4.6 | 39* | 8 | 5% | . | 0.0 | .

Profiles, quoted from the list. Order of values: LANA-H2B inh	HNF4A DNA FP	Beta2AR agonist	Vif A3G	E coli growth	Bfl-1 A1 inh	UCH37 DUB inh
O=C(CSc1ccc(Cl)cc1)c1ccco1 is listed with 2.0	-31	3	11µM*	0.63	-0.5	4.7
CCN(CC)CCNC(=O)C1CCN(S(=O)(=O)N2CCCCC2)CC1 is listed with -8.9	4.7	7	13%	0.67	1.3	1.1

Later entries.
SMILES | LANA-H2B inh | HNF4A DNA FP | Beta2AR agonist | Vif A3G | E coli growth | Bfl-1 A1 inh | UCH37 DUB inh
CC1CCc2nn(CC(=O)NCCCN3CCOCC3)cc2C1 (stereo unspecified) | -1.8 | 2.0 | 7 | 7% | 0.69 | -0.5 | 2.1
O=c1[nH]c2ccc(NS(=O)(=O)c3ccc([N+](=O)[O-])cc3)cc2[nH]1 | 3.1 | 2.3 | -4 | . | 0.72 | -0.3 | 5.0
O=C(Cn1cc(C(F)(F)F)ccc1=O)N/N=C/c1ccc(O)cc1 | -7.0 | 1.3 | -1 | . | . | 0.8 | .
Cc1cccc(NC(=S)N(C)C2CCCCC2)c1 | 0.4 | 8.8 | 3 | 6% | 0.62 | 1.4 | 2.1
O=C(Nc1ccc2c(c1)CCC2)c1c(F)cccc1Cl | -0.6 | -0.3 | -3 | . | 0.68 | ? | -0.5
CCCCCCCCCCCCCC(=O)O | 2.2 | -3.8 | 4 | . | 0.65 | -0.3 | 2.0
O=C(Nc1ccccc1)c1sc(N2CCOCC2)nc1-c1ccccc1 | 3.0 | -1.8 | -33 | . | 0.7 | 0.6 | -13
CCOc1ccccc1-c1nc(CN2CCCN(C(=O)c3ccco3)CC2)c(C)o1 | -1.6 | -1.7 | -13 | . | 0.7 | 1.1 | 1.6
CC(=O)Oc1cccc(N2C(=O)c3ccc(C(=O)O)cc3C2=O)c1 | 1.0 | 1.6 | . | 20% | 0.7 | -4.2 | 3.3
COc1ccc(NC(=O)CN(C)C(=O)c2n[nH]c3ccccc23)cc1 | -16 | -1.6 | -4 | . | . | -0.5 | .
Cc1ccc(-c2cc(C(F)(F)F)n3nc(C(=O)Nc4ccon4)cc3n2)cc1C | 4.6 | -1.4 | -2 | 11% | 0.66 | 0.8 | -70
COc1cc(C2CC(=O)Oc3cc(C)c(Cl)c(C)c32)cc(OC)c1OC (stereo unspecified) | . | 0.1 | 1 | 8% | 0.68 | . | 3.3
O=C(CCc1ccccc1)Nc1nc2c(F)cc(F)cc2s1 | -3.3 | 4.8 | -2 | 11% | 0.69 | -0.8 | 4.6
COCc1ccc(C(=O)N(C)CC2CCCN(CCc3ccc(Cl)cc3)C2)o1 (stereo unspecified) | 2.2 | 0.7 | -11 | . | 0.73 | 1.4 | -2.5
CC/S(=N\S(=O)(=O)c1ccc(C)cc1)c1ccccc1 (stereo unspecified) | 3.7 | 2.1 | -2 | . | 0.66 | 0.2 | 1.2
CCO[C@H]1OC(C(=O)N2CCCCCCC2)=C[C@@H](c2coc3ccccc3c2=O)[C@@H]1CCCO | 3.0 | 1.9 | -11 | 2% | . | 0.0 | 2.0
CCCC(C)c1nnc(NC(=O)C2CC(=O)N(c3ccc(OCC)cc3)C2)s1 (stereo unspecified) | 2.7 | 4.2 | -1 | . | 0.7 | 0.3 | 2.8
O=C(c1cc(F)c(F)cc1Cl)N1CCOCC1 | -5.3 | 0.5 | 8 | 4% | 0.71 | -0.4 | 3.2
